Screens deposited in PubChem BioAssay by Broad Institute.
NOMO-1 viab: STK33 inhibitor candidate reducing NOMO-1 cell viability; AID 2330; 37,000 compounds, 7.5% hits; inhibition, % (test concentration not listed); NOMO-1 AML viability, CellTiter-Glo luminescence, 72 h;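 active means most replicates above 80%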;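 further: wells of about 30 µL received 25 nL stock; 0% = median of vehicle wells and 100% = reference inhibitor level; the first replicate is given; inactives centre near 10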
Starred values were filed as active, the others as inactive. The list is partial; rates above refer to the full screens.

SMILES	NOMO-1 viab
CCCCC(=O)O[C@]1(C(=O)CO)[C@@H](C)CC2C3CCC4=CC(=O)C=C[C@]4(C)[C@@]3(F)C(O)C[C@@]21C (stereo partly drawn)	-3.3
COc1ccc(-c2cc(C(F)F)nn2-c2ccc(S(N)(=O)=O)cc2)cc1F	-21.1
O=C(CCN1CCN(CCO)CC1)N1c2ccccc2Sc2ccc(C(F)(F)F)cc21	16.5
C[C@@H]1CC[C@]2(C(=O)O)CC[C@]3(C)C(=CCC4[C@@]5(C)C[C@@H](O)[C@H](O)[C@@](C)(CO)C5CC[C@]43C)C2[C@H]1C (stereo partly drawn)	15.4

Random excerpt: two entries already listed.
SMILES	NOMO-1 viab
CCCCC(=O)O[C@]1(C(=O)CO)[C@@H](C)CC2C3CCC4=CC(=O)C=C[C@]4(C)[C@@]3(F)C(O)C[C@@]21C (stereo partly drawn)	-3.3
O=C(CCN1CCN(CCO)CC1)N1c2ccccc2Sc2ccc(C(F)(F)F)cc21	16.5
